Compound activity as filed in PubChem BioAssay.
HIV TAR-Tat: HIV-1 TAR-Tat binding disruption. HIV-1 TAR RNA, Tat peptide displacement FRET; stronger effect = higher value. z-score (concentration not given with the values). actives 0.6% (n = 100,000). AID 1259389;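 note: score is relative to mean and SD of negative controls; some compounds called inactive have numbers as strong as hits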
CDC25B CDK2 inh: human CDC25B-CDK2/CyclinA binding inhibition | P30305+P24941 | HTRF CDC25B-CDK2/CyclinA binding, anti-His/anti-Flag; stronger effect = higher value | z-score (test concentration not listed) | actives 0.72% (n = 94,000);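 note: score is relative to mean and SD of negative controls; strong numbers were not always called active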
* hit, by the source's call; x = no result given.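 Rule for the calls: active = z-score from 3 up in half or more of its runs; inactive = the rest.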

Sequence of screens: HIV TAR-Tat	CDC25B CDK2 inh
> Cc1ccnc2nc(NC(=O)c3cccs3)nn12
  -0.82	-2.1
> Cc1ccc(-c2cnnc(-n3nc(C)c4c3NC(=O)CC4c3ccc(C(=O)O)cc3)n2)cc1 (stereo not drawn)
  0.9	-0.92
> COc1ccc2[nH]cc(S(=O)(=O)c3ccc(C(C)(C)C)cc3)c(=O)c2c1
  2	0.29
> O=C(Nc1ccccc1)Nc1nnc(-c2ccccc2F)s1
  1.7	-1.2
> CCOC(=O)CNC(=O)NC(C)c1c(-n2cccc2)sc2c1CCCC2 (stereo not drawn)
  1.1	-1.8
> Cc1ccc(N2CCN(S(=O)(=O)c3ccc(-n4cnnn4)cc3)CC2)c(C)c1
  0.54	-1.3
> Cn1ncc2c(Nc3ccc(OCc4ccccc4)cc3)ncnc21
  0.99	x
> CCCCn1nc(NS(=O)(=O)c2ccc(C)cc2)c2cc3ccccc3nc21
  1.5	-3.5
> COC(=O)Cn1nc(C)c2c(C)n(-c3ccccc3)nc2c1=O
  0.65	2.5
> COc1ccccc1C1C2=C(CC(C)(C)CC2=O)Nc2nc(SCc3ccccc3F)nn21 (stereo not drawn)
  -0.4	0.2
> CN=c1scc(C)n1/N=C/c1c(Cl)cccc1Cl
  x	-0.05
> CCOC(=O)c1c(C)[nH]c(C)c1S(=O)(=O)NCC(=O)NC(C)(C)C
  0.37	x
> CCCc1cc(=O)[nH]c(Nc2ccc(F)cc2)n1
  2.2	-1.7
> O=C(CCCn1sc2ccccc2c1=O)NCCc1ccccc1
  2.2	-2.4
> CCCCc1cc(=O)oc2c(C)c(OCC(=O)OC)ccc12
  x	-1.9

Molecules from the list above with fluorine:
Sequence of screens: HIV TAR-Tat	CDC25B CDK2 inh
> O=C(Nc1ccccc1)Nc1nnc(-c2ccccc2F)s1
  1.7	-1.2
> COc1ccccc1C1C2=C(CC(C)(C)CC2=O)Nc2nc(SCc3ccccc3F)nn21 (stereo not drawn)
  -0.4	0.2
> CCCc1cc(=O)[nH]c(Nc2ccc(F)cc2)n1
  2.2	-1.7

Following part:
Sequence of screens: HIV TAR-Tat	CDC25B CDK2 inh
> CCN(Cc1ccccc1)C(=O)CSc1nncn2c1cc1oc(C)cc12
  2.4	x
> O=C1C(=O)N(Cc2cccnc2)C(c2ccc3c(c2)OCO3)/C1=C(\O)c1ccc(Cl)cc1 (stereo not drawn)
  0.3	-0.26
> O/N=C(\c1ccccc1)c1ccccn1
  x	-2.2
> O=C(CSc1nc2nccnc2c(=O)n1Cc1ccco1)Nc1ccc(F)cc1
  0.88	-0.55
> Cn1c(=O)n(C)c2cc(S(=O)(=O)Nc3ccc(O)cc3)ccc21
  -0.58	-0.14
> COc1cc(OC)c(NC(=O)Cn2cnc3nc4c(cc3c2=O)CCCC4)cc1Cl
  0.88	x
> COc1ccc(Nc2nc(-c3ccncc3)cs2)cc1
  1.6	-3.7
> CCCSc1nnc2c(n1)OC=Nc1ccc(Br)cc1-2
  -0.78	-0.3
> Cc1csc(NC(=O)CSc2nnc(Cn3c(=O)sc4ccccc43)n2-c2ccccc2)n1
  x	-1.1
> Cc1ccc2ccc(C(Nc3ccccn3)c3ccc(Br)cc3)c(O)c2n1 (stereo not drawn)
  1.1	-1
> CC1=C(c2ccc(C)cc2)S(=O)(=O)N=C1N1CCC(C)CC1
  1.3	1.5
> CC(=O)N1c2ccc(S(=O)(=O)N3CCCC(C(=O)N4CCCC4)C3)cc2CC1C (stereo not drawn)
  -0.78	x
> OCCNc1ncnc2c1sc1nc(-c3ccccc3)c3c(c12)CCCC3
  0.86	-0.01
> CC(C)Oc1ccc(OCCSc2nc3ncnc(N)c3[nH]2)cc1
  x	-0.3
> Cc1cccn2c(=O)c3cc(C#N)c(=O)n(-c4nccs4)c3nc12
  -1.1	-1.3

Entries shown so far that have a Cl atom:
Sequence of screens: HIV TAR-Tat	CDC25B CDK2 inh
> CN=c1scc(C)n1/N=C/c1c(Cl)cccc1Cl
  x	-0.05
> O=C1C(=O)N(Cc2cccnc2)C(c2ccc3c(c2)OCO3)/C1=C(\O)c1ccc(Cl)cc1 (stereo not drawn)
  0.3	-0.26
> COc1cc(OC)c(NC(=O)Cn2cnc3nc4c(cc3c2=O)CCCC4)cc1Cl
  0.88	x

Going on with the list:
Sequence of screens: HIV TAR-Tat	CDC25B CDK2 inh
> CCN1CCC2(CC1)OC(=O)C(C)=C2C(=O)NCc1ccco1
  0.27	x
> COc1ccc(-c2cc3nc(C)cc(N4CCOCC4)n3n2)cc1OC
  1.6	-1.3
> O=C(c1ccc(Br)cc1)N1CCN(c2cc(=O)n3nc(-c4ccccc4)sc3n2)CC1
  -1.9	x
> CC12CN(S(=O)(=O)c3ccccc3)CC(C)(CN(S(=O)(=O)c3ccccc3)C1)C2
  x	-1.1
> O=C(NCc1ccco1)c1cc2c(s1)CSC2
  x	-1.1
> COc1cccc(-c2csc(-c3nc(-c4ccccc4)cs3)n2)c1
  -0.07	x
> CN1c2ccsc2C(=O)/C(=C\Nc2ccccn2)S1(=O)=O
  x	-1.9
> O=C(CCCCCCCCC(=O)NNC(=O)c1ccco1)NNC(=O)c1ccco1
  x	-2
> CC1CN(C(=O)N2CCC(C(=O)NCc3ccco3)CC2)c2cc(Cl)ccc2O1 (stereo not drawn)
  -1.6	x
> O=C(CCS(=O)(=O)c1ccc2c(c1)NC(=O)CO2)Nc1ccc(F)cc1
  2.3	x
> Cc1ccc(N(CC(N)=O)C2SC(=O)N(Cc3ccccc3)C2=O)cc1 (stereo not drawn)
  x	-1.8
> COc1cc(OC)cc(C(=O)Nc2nn[nH]n2)c1
  x	0.58
> CC(NC(=O)C1CCN(C(=O)c2cc3sccc3n2C)CC1)c1ccc2c(c1)OCCO2 (stereo not drawn)
  x	0.89
> Cc1nn(C(C)C(=O)N2CCN(c3ccccc3)CC2)c(=O)c2c1sc1ccccc12 (stereo not drawn)
  0.15	-2.9
> CSc1cccc(NC(=O)CCc2nc3sc4c(c3c(=O)[nH]2)CCCCC4)c1
  0.83	x
> O=C(C1CCN(c2ncnc3c2nc2n3CCCCC2)CC1)N1CCCc2ccccc21
  -0.29	x
> CCCCC(=O)Nc1nnc(SCc2cc(=O)n3c(C)csc3n2)s1
  0.22	x
> Cc1n[nH]c(=O)nc1SCC(=O)Nc1ccc(Br)cc1
  1.9	-2.7
> CCc1ccc2[nH]c(CSc3nnc(COc4ccc(C)cc4)n3C)cc(=O)c2c1
  0.33	x
> CCOC(=O)N1CCC(NC(=O)CCS(=O)(=O)c2ccc3c(c2)NC(=O)C(CC)S3)CC1 (stereo not drawn)
  -0.53	x
> CC(NC(=O)c1ccc2c(c1)OCCO2)c1ccc2c(c1)OCO2 (stereo not drawn)
  0.59	x
> CCOc1ccc(CN2CCc3nc(N4CCN(c5ccccn5)CC4)ncc3C2)cc1OCC
  -0.14	x
> CSc1ccc(C(Nc2ccccn2)c2ccc3ccc(C)nc3c2O)cc1 (stereo not drawn)
  0.08	-0.6
> CCOC(=O)c1nc(Nc2ccc(OC(C)C)cc2)c2ccccc2n1
  -0.05	0.46
> O=c1ccc(-c2ccc(F)cc2)nn1CCNS(=O)(=O)c1ccccc1Cl
  0.87	x
> CCc1cccc(-n2nnc(-c3nc(-c4ccc(C)cc4)no3)c2C)c1
  -0.46	x
> CCn1nc(C)c(CNC(=O)Nc2ccc(Br)cc2)c1C
  -0.2	x
> Cc1ccc(Cl)cc1-n1ncc2c(NCCNCCO)ncnc21
  0.95	x
> O=C1CCCC2=C1C(c1cccc(OCc3ccccc3)c1)n1ncnc1N2 (stereo not drawn)
  -0.3	-0.87
> Cc1ccc2c(c1)N(C(=O)N1CCC(C(=O)NC3CCCC3)CC1)CC(C)O2 (stereo not drawn)
  1.1	x
> FC(F)(F)c1ccc(Cl)c(NC(=S)N2CCOCC2)c1
  x	-1.2
> CN(C)C(=O)CCn1cnc2c1c(=O)[nH]c(=O)n2C
  x	0.64
> Cc1ccc(S(=O)(=O)N2CCN(c3ccc4nncn4n3)CC2)cc1
  0.88	-1.9
> CCOC(=O)N1CCN(c2c(NCCOC)c(=O)c2=O)CC1
  2.5	-2.6
> Cc1ccc(-c2nc3cc(NC(=O)c4ccc([N+](=O)[O-])o4)ccc3o2)cc1
  1.8	0.44
> COc1ccc(OC)c(NC(=O)Cn2cnc3nc(SC)ncc3c2=O)c1
  0.54	x
> O=S(=O)(Nc1ccc(-c2cn3ccccc3n2)cc1)c1ccccc1
  x	-0.06
> COC(=O)CCS(=O)(=O)c1ccc(Br)cc1
  2.1	-1.2
> Clc1ccc(-n2ncc3c(NC4CCCCC4)ncnc32)cc1
  -0.36	x
> CCOc1ccc(-c2n[nH]c3c2cnc2ccccc23)cc1
  2.1	4.5
> O=C1C2CC=CCC2C(=O)N1c1ccc(Cl)cc1O (stereo not drawn)
  0.4	-1.9
> Nc1nonc1-c1nc2ccccc2n1Cc1cc2c(cc1Br)OCO2
  1.4	-2.7
> Cn1ncc(C(=O)NC(=O)Nc2ccc(F)cc2)c1[N+](=O)[O-]
  x	-0.94
> COc1cccc(-c2nc3c(c(=O)[nH]2)Cc2cc(F)ccc2O3)c1OC
  1.4	-0.73
> C=CCn1c(N)cc(=O)nc1SCC(=O)N1c2ccccc2Sc2ccccc21
  x	-0.65
> COc1cccn(CC(=O)NNS(=O)(=O)c2ccccc2)c1=O
  x	-1.4
> Cn1c(=O)c2[nH]c(NCCCN3CCOCC3)nc2n(C)c1=O
  1.4	0.06
> COC(=O)C(CCSC)Nc1ncnc2onc(-c3ccc(F)cc3)c12 (stereo not drawn)
  -1.2	-0.46
> COc1ccc(-c2nc(C(N)=O)c3[nH]c(=O)n(CC4CCCO4)c3n2)c(OC)c1 (stereo not drawn)
  -0.23	x
> COc1ccc(Cl)cc1NC(=O)Nc1c(C)nc2nc[nH]n2c1=O
  0.97	x
> C=Cc1ccc(CSc2nncn3c2cc2oc(C)cc23)cc1
  0.17	x
> CC1CCCC(C)N1C(=O)CN1C(=O)COc2ccc(S(=O)(=O)N3CCOCC3)cc21 (stereo not drawn)
  -0.11	-0.83
> CCCCOc1ccc2c(=O)c(Oc3ccccc3)coc2c1
  x	-0.6
> CNC(=O)N1c2ccccc2NC2=C(C(=O)CCC2)C1c1cccs1 (stereo not drawn)
  0.61	x
> COC(=O)c1cc2c(s1)CN(c1cc(C)cc(C)c1)C2
  x	-4.2
> COc1ccc(NC(=O)c2nn(-c3ccc(OC)cc3)ccc2=O)cc1
  1.2	3.8
> CC(C)c1ccc(NC(=O)Cn2nc3c4sccc4ncn3c2=O)cc1
  0.6	x
> CSc1ccc(Cn2cccc2C2=NC(c3ccccc3)CO2)cc1 (stereo not drawn)
  0.74	x
> O=C(O)/C=C/C(=O)Nc1ccc(OC(F)(F)F)cc1
  x	-0.41
> CCCc1nc2nc(C)cc(Nc3ccc(Br)cc3)n2n1
  0.45	-0.21

Next part
Sequence of screens: HIV TAR-Tat	CDC25B CDK2 inh
> CCc1cccc(C)c1NC(=O)Nc1c(Br)cnn1C
  x	-1.6
> C=C1c2cc(OCC)ccc2NC(=O)N1c1ccccc1
  x	-1.6
> NS(=O)(=O)c1ccc(CCN[C@H]2CS(=O)(=O)C[C@@H]2S(=O)(=O)c2ccc(F)cc2)cc1
  1.1	-0.88
> COc1ccc(OC)c(C2CC(=O)Nc3c2cnn3-c2nc3ccccc3s2)c1 (stereo not drawn)
  0.41	x
> O=C1CN(C(=O)Oc2ccccc2)c2ccccc2N1
  0.52	-1.2
> COCC(=O)Nc1cccc2nsnc12
  -0.7	x
> CCOc1ccc2ncc(S(=O)(=O)c3ccc(OC)cc3)c(N3CCC(C)CC3)c2c1
  -0.66	-0.7
> Cc1cc(S(=O)(=O)NCC2CCN(C(=O)OC(C)(C)C)CC2)c(C)o1
  x	-0.05
> O=C1CC(c2ccc(Cl)cc2)N=C(NC(=O)c2cccnc2)N1 (stereo not drawn)
  -1.1	x
> CNC(=O)NCc1ccc2ncccc2c1
  -0.17	x
> COc1ccc(C2(O)CSC3=C(C#N)C(c4ccc(OC)c(Cn5cccn5)c4)CC(=O)N32)cc1 (stereo not drawn)
  x	-1.6
> CCOC(=O)CSc1nc(Nc2ccccc2)c2cnc(N3CCOCC3)nc2n1
  x	-0.76
> CCOC(=O)C1CC(=O)C(C(=O)OCC)CC1=O (stereo not drawn)
  x	-1.7
> Cn1cc(S(=O)(=O)N2CCc3ccccc32)cc1C(=O)N1CCc2ccccc2C1
  0.68	-0.58
> CC(C)CCN1C(=O)Cn2cccc2C1C(=O)NC1CCCCC1C (stereo not drawn)
  1.9	-0.04

Molecules above that have a COOH group:
Sequence of screens: HIV TAR-Tat	CDC25B CDK2 inh
> Cc1ccc(-c2cnnc(-n3nc(C)c4c3NC(=O)CC4c3ccc(C(=O)O)cc3)n2)cc1 (stereo not drawn)
  0.9	-0.92
> O=C(O)/C=C/C(=O)Nc1ccc(OC(F)(F)F)cc1
  x	-0.41

Carrying on:
Sequence of screens: HIV TAR-Tat	CDC25B CDK2 inh
> C[C@@H]1C(=O)O[C@H]2C[C@@]34C5C[C@@H](C(C)(C)C)[C@]36[C@H](OC(=O)[C@@H]6O)OC4(C(=O)O5)[C@]21O (stereo partly drawn)
  2.7	x
> Cn1c(=O)oc2cc(S(=O)(=O)Nc3ccccc3F)ccc21
  1.8	-0.68
> O=C1CSC(c2ccccn2)N1c1ccc(C(F)(F)F)cc1 (stereo not drawn)
  x	-1.1
> CCc1ccc(C2C(C(=O)OC(C)C)=C(C)NC3=C2C(=O)CCC3)cc1 (stereo not drawn)
  -0.27	-1.6
> O=C(Nc1ccccc1F)C1CC(=O)N(c2ccccc2)C1 (stereo not drawn)
  -1.1	-1
> Cc1nnc2c(N3CCCCC3C)nc3ccccc3n12 (stereo not drawn)
  x	-0.92

Random draw from the library, and some 0.89% of all compounds hit somewhere here.
